Source: PubChem BioAssay (several laboratories)
FAS TE block – FAS thioesterase domain inhibitors, primary screen, biochemical, fluorescence intensity, uHTS | recombinant FAS-TE, OMFH fluorogenic substrate, fluorescence endpoint | inhibition, % at 15 µM | 0.67% of 360,000 active;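 active = compounds whose normalised, plate-corrected inhibition of enzyme fluorescence in the single-dose primary screen is 50% or more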;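 also: 0% = DMSO with enzyme and 100% = substrate without enzyme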
NRP1-CendR mod – modulators of CendR peptide binding to NRP-1, primary screen, biochemical, fluorescence polarization, uHTS; Neuropilin-1 (Homo sapiens), O14786; FAM-RPARPAR peptide binding to NRP-1; 0.85% of 360,000 active; inhibition, % at 25 µM;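 active = inhibition or corrected inhibition above about 18%, plus a signal ratio from 0.5 to 1.5, limit read from the data, passing the limit was not always enough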; also: strong numbers were not always called active
Neddyl block – inhibitors of cullin neddylation, primary screen, biochemical, TR-FRET, uHTS, NAE and Ubc12 | NEDD8-conjugating enzyme Ubc12 (Homo sapiens) + NEDD8-activating enzyme E1 regulatory … | calls only at 25 µM | 0.58% of 360,000 active | AID 651699, 2012; in the data active = inhibition above about 36%
E coli Lon inh – inhibitors of E. coli Lon protease, primary screen, biochemical, fluorescence polarization; 0.42% of 360,000 active; purified E. coli Lon protease; P0A9M0; inhibition, % at 7.94 µM; AID 602123, 2011; in the data active = inhibition above about 13%, passing the limit was not always enough;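 also: 0% = enzyme with probe and DMSO and 100% = no enzyme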
The depositor's hits bear a star; i = inactive.

item | SMILES | FAS TE block | NRP1-CendR mod
1 | O=C(CCCN1CCC(C(O)c2ccc(F)cc2)CC1)c1ccc(F)cc1 (stereo not given) | 0 | 3
2 | Nc1nc(Cl)c(N)c(NCC2(CO)CC(CCc3ccccc3)C2)n1 (stereo not given) | -12 | -98
3 | CCOC(=O)c1ccc(NC(=O)Nc2ccccn2)cc1 | -13 | -1
4 | O=C(Nc1nc2cc3c(cc2s1)OCCO3)C1=COCCO1 | 0 | 1
5 | O=C(C=Cc1cccs1)c1ccccc1 | 0 | -8
6 | Cc1cc(C)c(/C=C2\C(=O)Nc3ccccc32)[nH]1 | -128 | 142
7 | O=C(NC1=NC2CCCCC2N1)c1ccccc1 (stereo not given) | -7 | 8
8 | CN1CCN(C(=O)c2ccc(NS(=O)(=O)c3ccccc3)cc2)CC1 | -10 | -12
9 | CC(C)(C)n1nc(Cc2cccc3ccccc23)c2c(N)ncnc21 | 12 | -14
10 | Cc1ccc(NC(=O)c2ccc(CN3CCN(C)CC3)cc2)cc1Nc1nccc(-c2cccnc2)n1 | -4 | -10

item | Neddyl block | E coli Lon inh
1 | i | 6
2 | i | -12
3 | i | -4
4 | i | -5
5 | i | -6
6 | i | 6
7 | i | 12
8 | i | 0
9 | i | -5
10 | i | 7

Laid out differently: four of the compounds above
2. Nc1nc(Cl)c(N)c(NCC2(CO)CC(CCc3ccccc3)C2)n1 (stereo not given)
  FAS TE block = -12
  NRP1-CendR mod = -98
  Neddyl block = i
  E coli Lon inh = -12
7. O=C(NC1=NC2CCCCC2N1)c1ccccc1 (stereo not given)
  FAS TE block = -7
  NRP1-CendR mod = 8
  Neddyl block = i
  E coli Lon inh = 12
9. CC(C)(C)n1nc(Cc2cccc3ccccc23)c2c(N)ncnc21
  FAS TE block = 12
  NRP1-CendR mod = -14
  Neddyl block = i
  E coli Lon inh = -5
6. Cc1cc(C)c(/C=C2\C(=O)Nc3ccccc32)[nH]1
  FAS TE block = -128
  NRP1-CendR mod = 142
  Neddyl block = i
  E coli Lon inh = 6

These rows are one share of the data (hit frequency here may not be typical).
